NPR1 antag: antagonists of human natriuretic peptide receptor Npr1; P16066; HEK293 hNpr1 GloSensor cGMP, ANP-stimulated luminescence; Potency, µM (top dose mostly 46.3 µM), for the others: top-dose activity change, negative = inhibition, most hits filed as inhibitors; 76,000 tested, 1.6% active; AID 1347048; active = well fitted inhibition curve with a large enough effect; inconclusive = small, poorly fitted or top-dose-only effect; inactive = no such curve, though single readings can be large or run the other way;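 also: nearly all actives have a fitted effect of over 60% in size; nearly all hits also lower the signal before the agonist is added; a reference antagonist and vehicle were the controls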
Target sequence (P16066 whole entry, looked up): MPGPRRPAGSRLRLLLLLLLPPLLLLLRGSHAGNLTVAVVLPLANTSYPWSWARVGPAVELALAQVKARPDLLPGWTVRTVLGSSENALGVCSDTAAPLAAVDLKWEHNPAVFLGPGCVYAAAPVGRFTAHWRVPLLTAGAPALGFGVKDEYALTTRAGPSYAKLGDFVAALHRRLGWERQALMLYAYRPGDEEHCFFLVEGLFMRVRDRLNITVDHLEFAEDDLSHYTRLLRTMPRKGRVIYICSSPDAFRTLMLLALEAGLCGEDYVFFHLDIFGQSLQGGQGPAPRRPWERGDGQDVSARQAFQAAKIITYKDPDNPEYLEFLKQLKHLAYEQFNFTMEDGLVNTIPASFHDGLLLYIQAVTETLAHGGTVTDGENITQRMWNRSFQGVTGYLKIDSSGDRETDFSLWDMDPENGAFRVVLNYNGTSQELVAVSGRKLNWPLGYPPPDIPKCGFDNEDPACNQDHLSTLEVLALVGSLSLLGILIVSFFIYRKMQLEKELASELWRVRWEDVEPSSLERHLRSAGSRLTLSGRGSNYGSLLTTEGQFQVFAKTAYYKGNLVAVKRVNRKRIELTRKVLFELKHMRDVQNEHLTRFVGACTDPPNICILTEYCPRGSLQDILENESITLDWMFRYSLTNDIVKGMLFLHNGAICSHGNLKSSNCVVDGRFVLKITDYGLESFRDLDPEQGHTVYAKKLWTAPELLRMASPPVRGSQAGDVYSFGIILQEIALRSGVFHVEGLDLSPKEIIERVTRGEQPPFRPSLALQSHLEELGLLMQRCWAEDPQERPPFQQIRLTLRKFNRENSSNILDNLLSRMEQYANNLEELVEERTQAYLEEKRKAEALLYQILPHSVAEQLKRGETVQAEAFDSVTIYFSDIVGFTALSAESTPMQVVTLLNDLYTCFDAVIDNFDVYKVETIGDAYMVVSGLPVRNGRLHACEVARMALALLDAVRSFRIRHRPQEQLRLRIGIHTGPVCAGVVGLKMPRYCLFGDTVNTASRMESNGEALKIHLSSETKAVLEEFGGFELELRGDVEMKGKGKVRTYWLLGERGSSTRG
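Compound pre-incubated 30 min at room temperature on GloSensor-loaded HEK293 cells stably carrying hNpr1 and the pGS-40F cGMP biosensor. Stimulation uses hNppA at 0.1 nM final; luminescence is taken at baseline and 20 min post-agonist.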
The depositor's hits bear a star; ? = inconclusive; [ ] = another dose, or the depositor's remark. % is scaled to controls: 0 for no effect and ±100 for the full control effect; potency is read from the fitted curve at half-maximal effect.

SMILES	NPR1 antag
Cc1ccc(C(=O)N2CCC(n3c(C)cnc3-c3ccccc3)CC2)cn1	1%
O=C1NCCC[C@@H]1NC(=O)[C@@H]1CN(C(=O)c2cccc(F)c2)CCN1C(=O)c1cccc(F)c1	-1%
Cc1cnc(CC2CCN(C(=O)C3CCOC3)CC2)n1Cc1ccc(F)cc1 (configuration not stated)	2%
Cc1nnsc1C(=O)N[C@H]1CCN(C(=O)CSCC(=O)O)[C@H](C(=O)N[C@H](Cc2ccccc2)C(N)=O)C1	1%
CNC(=O)CCn1ncc2cc(OCc3ccccc3-c3ccccc3OC)ccc21	-15%[70.6 µM]
CC(=O)c1cccc(NC(=O)c2cnc(-c3ccc(C)cc3)nc2-c2ccncc2)c1	-19%
O=C(c1nccc2ccccc12)N1CCC(N2C(=O)C(O)C23CCCCC3)CC1 (configuration not stated)	3%
CCC(c1cnn(C)c1)n1ccnc1-c1ccc(SC)cc1 (configuration not stated)	0%
COC(=O)CNC(=O)N1CCCCCCNC(=O)[C@@H]2C[C@@H](c3nc(-c4cccnc4)no3)C[C@@H]21	11%
COc1ccc(-c2cn(C)c(=O)n3cc(COc4ccnn4C)nc23)cc1	0%[70.6 µM]
CCOC(=O)CCNC(=O)N1CCC(OC2CCN(S(C)(=O)=O)CC2)CC1	1%
O=C(CCc1ccccc1)NCCn1cccc1-c1nc(-c2ccc3c(c2)OCO3)no1	-24%
COCCN1C(=O)CS(=O)(=O)C12CCN(C(=O)c1cc(C)ccc1C)CC2	-14%
Cc1ccc(C(=O)N2CC[C@@H]3CN(S(C)(=O)=O)[C@@H]3C2)c(=O)[nH]1	3%
N#Cc1cccc(C(=O)N2CCC3(CC2)NC(=O)N(Cc2ccccc2)C3=O)c1	1%
COc1cccc(CN(C)Cc2ccc(F)cc2)c1	1%[70.6 µM]
O=C(Nc1ccccc1C(F)(F)F)N1CCCC1c1nncn1-c1ccccc1 (configuration not stated)	-1%
N#Cc1cccc(CN2CCc3ncc(C(=O)NCc4ccccc4)n3CC2)c1	-19%[70.6 µM]
CC(C)NC(=O)C[C@@H]1O[C@H](CNC(=O)Nc2ccccc2)[C@@H](O)[C@H]1O	-3%[70.6 µM]
c1ccc(CN2CCNc3cc(-c4cccnc4)ncc3C2)cc1	3%[70.6 µM]
COc1cc(NC(=O)Cn2c(N3CCc4ccccc4C3)nc(C)cc2=O)cc(OC)c1	-18%
O=C(C1CCN(c2nc(-c3ccccc3)nc3c2CCC3)CC1)N1CCC(CO)C1 (configuration not stated)	-10%
O=C1NC2(CCN(CC3CCCC3)CC2)COc2ccccc21	17%[70.6 µM]
Oc1ccccc1CN1CCC[C@H]1c1nc(-c2ccc(N3CCOCC3)nc2)no1	4%[70.6 µM]
Cc1ccc(CN2C[C@]34C=C[C@H](O3)C(C(=O)N(C)Cc3ccsc3)C4C2=O)cc1C (some centres not stated)	2%
The list continues:
SMILES	NPR1 antag
Cc1nc(-c2ccc(Cl)cc2)n(CC(=O)Nc2cccc(C(F)(F)F)c2)c(=O)c1CCO	-1%
COC(=O)C1=C(C)N=C2SC=C(CC(=O)NCCc3cccs3)N2C1c1ccccc1Cl (configuration not stated)	?
O=C(c1ccc(F)cc1)N1CCC(n2cc(-c3nc(-c4ccccc4)no3)nn2)CC1	?
COc1ccc(Nc2cnc3ccc(-c4cccc(CO)c4)nn23)cn1	-6%[70.6 µM]
Cc1cc(C(=O)N2CCCN(C)c3ccccc32)nn1C	-5%
COCCN(C)C[C@H]1C[C@H](CO)CN(C(=O)c2[nH]nc(-c3ccccc3)c2C)C1	-1%
CC(=O)N1C[C@@H]2CCCN3CCC[C@@H]([C@H]23)[C@H]1CCCC(=O)NCCCN1CCCCC1	1%
CCN1C(=O)C2CC3(CCN(C(=O)CN4CCCC4=O)CC3)CN2C1=O (configuration not stated)	4%
Cc1cc(F)ccc1NC(=O)c1cc2n(n1)CC(c1ccc(Cl)cc1)OC2 (configuration not stated)	16µM*
COc1cc(OC)cc(-c2onc(C)c2C(=O)NCCOc2ccccc2)c1	-5%
Cn1cc(-c2cc(=O)c3ccnc(NC4CCOCC4)c3o2)cn1	5%[70.6 µM]
CN1[C@@H](CCC(=O)Nc2ccccc2)CNC(=O)[C@@H]2[C@H]1CCN2Cc1ncc[nH]1	5%[70.6 µM]
Cc1nc(CN2Cc3nc(Oc4ccccc4)ccc3OCC2=O)cs1	-12%[70.6 µM]
O[C@@H]1CO[C@H]2[C@@H]1OC[C@@H]2n1cc(-c2ccccc2)nn1	-9%[70.6 µM]
c1cc2nc(C3CCCN3)[nH]c2cn1 (configuration not stated)	-7%[70.6 µM]
COc1ccc(C(=O)N[C@@H]2CCC[C@@H]2C(=O)NCc2ccc(C(C)C)cc2)cn1	3%
COc1cccc(C(=O)N2C(C(=O)NC3CC3)COC23CCN(C(=O)c2cccc(F)c2)CC3)c1 (configuration not stated)	-1%
OC[C@@H]1CN(c2ccc(-c3nc(-c4cccc(C(F)(F)F)c4)no3)cn2)C[C@H]1CO	-23%
COc1ccc(CC(=O)N2C3CCCC2CC(=O)C3)cc1	5%[70.6 µM]
COCCCn1c(C)cnc1CC1CCNCC1	8%
Cn1cnc(S(=O)(=O)N2CCCC(Cc3nncn3CC3CC3)C2)c1 (configuration not stated)	2%
CCNC(=O)[C@@H]1CCCN1C1(C(=O)NC)CCOCC1	4%[70.6 µM]
CCCOCCCNC(=O)c1c(C)noc1-c1cc(OC)cc(OC)c1	-6%
COC1C(=O)N(CC2CC2)C12CCN(C(=O)Cc1cccc(F)c1)CC2 (configuration not stated)	-9%
CCCc1noc(-c2cn(C3CCN(C(=O)c4ccc(C)s4)CC3)nn2)n1	0%

Brought forward from above: six entries, followed by the next part.
SMILES	NPR1 antag
COCCCn1c(C)cnc1CC1CCNCC1	8%
Cn1cnc(S(=O)(=O)N2CCCC(Cc3nncn3CC3CC3)C2)c1 (configuration not stated)	2%
CCNC(=O)[C@@H]1CCCN1C1(C(=O)NC)CCOCC1	4%[70.6 µM]
CCCOCCCNC(=O)c1c(C)noc1-c1cc(OC)cc(OC)c1	-6%
COC1C(=O)N(CC2CC2)C12CCN(C(=O)Cc1cccc(F)c1)CC2 (configuration not stated)	-9%
CCCc1noc(-c2cn(C3CCN(C(=O)c4ccc(C)s4)CC3)nn2)n1	0%
CCCN(CC1CC1)C(=O)CCC1CCN(S(=O)(=O)c2ccccc2)CC1	-16%
O=C(COc1ccccc1)N1CC(c2noc(COc3ccccc3)n2)C1	-15%
CC[C@@H]1[C@H](NC(=O)CCc2c(C)[nH]c3ccccc3c2=O)[C@@H]2CCO[C@H]12	2%
CN(C)c1ccc(CN2CCC3(Cc4ccccc4NC3=O)C2)cc1 (configuration not stated)	5%[70.6 µM]
CC(=O)N1CC2(CCN(CCc3ccccn3)CC2)CC1C(=O)O (configuration not stated)	5%
CC(C)Nc1nccc(C2(c3ccccc3Cl)CCNCC2)n1	2%
CCc1ccc(C(=O)N2CCC(n3cnnc3CC)CC2)cc1	3%
CCN(CC)C(=O)[C@@H]1CCC[C@@H](NCc2cccnc2)CN(C)C(=O)C1	6%[70.6 µM]
Cc1cn2nc(C(=O)NC(C)c3ccc(F)cc3)cc2c(N2CCCC2)n1 (configuration not stated)	6%
COc1ccc(N2CCN(C(=O)[C@H]3CCC[C@H]3NC(=O)c3cnc(C)cn3)CC2)cc1	1%
Cc1nc2scc(CC(=O)N3CCCC3)n2c(=O)c1-c1cc(C)n(-c2ccc(C(C)C)cc2)n1	-22%
O=C(Nc1cccc(Cl)c1)N1CC(n2cc(COc3ccccc3)nn2)C1	2%
O=C(c1ccoc1)N1CCC(n2cc(-c3nc(-c4ccccc4)no3)nn2)CC1	-23%
Cc1occc1C(=O)N1CCC2(CCCN(CC3CCCCC3)C2=O)C1 (configuration not stated)	0%
O=C(NCCCn1cccn1)C1CN(S(=O)(=O)c2cccs2)CC12CCCCC2 (configuration not stated)	-5%
COc1cc(-c2ccnc3nc(C4CCC4)nn23)cc(OC)c1OC	7%
COCCNC(=O)C[C@@H]1c2nc(NC(=O)c3cccc(F)c3)sc2C[C@@H]2[C@](C)(CO)[C@H](O)CC[C@]21C	1%
Nc1ncccc1CN1CC[C@@H]2OCC(=O)N(c3ccccc3)[C@H]2CC1	3%[70.6 µM]
COc1ccc(Cl)cc1S(=O)(=O)N1CCC(n2cnnc2C)CC1	2%
O=C(NCCCN1CCc2ccccc2C1)C1CCCCC(=O)N1Cc1ccccc1 (configuration not stated)	-1%
Cc1ccc(-c2nccn3cc(C(=O)NCCc4ccccn4)nc23)cc1	-10%
Cc1cc(NC(=O)c2ccc3c(c2)OCCN(C2CCC2)C3)ccc1F	-24%[70.6 µM]
CCn1nc(C(C)C)cc1C(=O)NCc1cccnc1N1CCN(C)CC1	2%
COC[C@@H]1CN(Cc2cccc(C#N)c2)C[C@H]1C(=O)NC1CC1	-2%
O=C1CO[C@H]2CCN(Cc3ccccc3F)CC[C@@H]2N1c1ccccc1	-26%[70.6 µM]
Remaining list, next part.
SMILES	NPR1 antag
CC(C)(C)CN1CCOC[C@H]1c1ncc(-c2cccc(Cl)c2)[nH]1	-18%[70.6 µM]
O=C1[C@@H]2C[C@@H](O)CN2C2(CN(C3CCC(F)(F)CC3)C2)C(=O)N1Cc1ccccc1	3%[70.6 µM]
Cc1nc2c(c(NCCc3nc(C)c(Cl)s3)n1)CCNCC2	7%
CN(Cc1cnc2ccccc2n1)Cc1cn[nH]c1-c1ccc(F)cc1	3%
N[C@H]1CN(C(=O)c2ccc(N3CCCCC3)cc2)C[C@@H]1c1ccccc1	0%
Cc1ccc(C(=O)NCCc2noc(-c3ccncc3)n2)cn1	0%
COCC1CN(C(C)=O)CC12CCN(C(=O)c1ccccc1OC)CC2 (configuration not stated)	5%
COc1ccc(S(=O)(=O)N2CCOC[C@H](Oc3ccc(C(F)(F)F)cc3)C2)cc1	?
O=C(NCc1noc(Cc2cccs2)n1)C1NCCc2[nH]cnc21 (configuration not stated)	3%
C[C@@H](NS(C)(=O)=O)c1c(-c2ccc(F)cc2)noc1C(=O)O	-1%[70.6 µM]
O=C(c1nnc(COc2ccc(F)c(F)c2)n1-c1ccccc1)N1CCC[C@@H]1C(c1ccccc1)c1ccccc1	-6%
CC(C)(C)C(=O)N1CC[C@@H](CC(=O)O)[C@@H](CCN2CCC(n3c(=O)[nH]c4ccccc43)CC2)C1	7%
COCc1noc(CC2CCOC3(CCN(C(=O)c4n[nH]c5ccccc45)CC3)C2)n1 (configuration not stated)	-10%
O=C(c1ccno1)N1CCOC[C@H](Oc2ccc(C(F)(F)F)cn2)C1	-6%[70.6 µM]
CS(=O)(=O)CC(=O)Nc1ccccc1C(=O)NCc1ccccn1	8%
COc1ccc(C(=O)NCc2nnc3cc(-c4nc(C(C)C)no4)ccn23)cc1F	-5%
O=C(CC1CCCN(c2cnn(CC3CC3)c(=O)c2)C1)NCCc1c[nH]c2ccccc12 (configuration not stated)	-1%
COc1ccc(NC(=O)Cn2c(-c3ccc(Cl)cc3)nc(C)cc2=O)cc1OC	0%
CCC(=O)N1CCCCC1c1noc(COCCOC)n1 (configuration not stated)	-8%
CCN1C(=O)C2CC3(CCN(C(=O)c4c[nH]c5ccccc45)CC3)CN2C1=O (configuration not stated)	3%
Cc1nncn1C1CCN(S(=O)(=O)c2cccc(Br)c2)CC1	6%
COC(=O)c1cc2n(n1)CCCN(C(=O)c1cc(CC(C)C)no1)C2	-3%
CCC(C)NC(=O)C1COC2(CCN(C(=O)C3CC3)CC2)N1C(=O)c1ccccc1 (configuration not stated)	0%
Cn1cnc(S(=O)(=O)N2CCCCCCNC(=O)[C@@H]3CCC[C@@H]32)c1	7%
COc1ccc(Cl)cc1C(=O)N1CC[C@@H]2CN(S(C)(=O)=O)[C@@H]2C1	2%

Next part (3 carried over from the part before).
SMILES	NPR1 antag
CCC(C)NC(=O)C1COC2(CCN(C(=O)C3CC3)CC2)N1C(=O)c1ccccc1 (configuration not stated)	0%
Cn1cnc(S(=O)(=O)N2CCCCCCNC(=O)[C@@H]3CCC[C@@H]32)c1	7%
COc1ccc(Cl)cc1C(=O)N1CC[C@@H]2CN(S(C)(=O)=O)[C@@H]2C1	2%
Cc1cnc(-c2ccccc2)n1CCNC(=O)NCc1ccccc1	-1%
COCCN1C(=O)[C@@H]2C[C@@H](CN2Cc2ccccc2F)Oc2ccccc21	-4%[70.6 µM]
Cc1ccc(NC(=O)N2CCC(n3c(C)cnc3C3CCOCC3)CC2)cc1C	2%
COc1ccccc1NC(=O)Nc1ccnn1C1CCN(C(=O)CO)CC1	2%
O=C(NCC1CC1)c1cn(C2CN(C(=O)Nc3ccccc3)C2)nn1	3%
COc1ccc(OC)c(S(=O)(=O)N2CCC(C(=O)N3CCCCCCNC(=O)CC3)CC2)c1	-3%
Cc1cc(C(F)(F)F)nn1CC(=O)NCCc1ncc(C)n1CC1CC1	5%
COC[C@@H]1CN(C(=O)c2ccc(C)[nH]c2=O)C[C@H]1c1ccncc1	-2%
O=C1CC(C(=O)N2CCc3c(Cl)cccc3C2)CN1Cc1cccnc1 (configuration not stated)	0%
CCN1c2cc(C(=O)NCCc3ccccc3)ccc2C(=O)N2CCCCCC21 (configuration not stated)	-28%
NCCC1CCN(C(=O)Nc2ccccc2)CC1	-1%
Cc1ccc(-c2cc3c(ccn3C)c(C(=O)NCCc3cnc[nH]3)n2)cn1	5%[70.6 µM]
CCn1nc(CNC(=O)C2CCC(=O)N(C3CCCC3)C2)c2ccccc21 (configuration not stated)	-4%
COc1ccc(NC(=O)C2CC(=O)N(c3n[nH]c4cccc(F)c34)C2)cc1 (configuration not stated)	9%
COC[C@H]1CCCN1Cc1nc(C2(O)CCN(C)CC2)cs1	5%[70.6 µM]
COc1ccc2nc([C@H]3CCN(Cc4ccccc4)C3)[nH]c2c1	-2%[70.6 µM]
COc1ccc(OC2CCN(C(C)=O)CC2)c(C(=O)NCCc2ccccc2OC)c1	-7%
O=C1CCN(C(=O)c2ccccc2)CCCC(C(=O)NCC2CC2)CCN1 (configuration not stated)	7%

This is a subset; count on the stated rates, not on these rows.
